Source: PubChem
RN4220 kill – growth inhibition of S. aureus RN4220, primary screen, OD600. inhibition, % (no concentration beside the values). 330,000 compounds, 0.33% hits. 16 h;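 active means z-score of -3 or lower and OD600 up to 0.18 on both plates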;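 further: plate controls were untreated cells for no effect and reference antibiotic for full effect; stock transfer was 100 nL into about 80 µL; one replicate is shown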
Mtb hypoxia inh – PubChem AID 1159583. 300,000 compounds, 0.1% hits. M. tuberculosis hypoxia-regulated fluorescent reporter, fluorescence. fluorescence inhibition, % (concentration not given with the values);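 active means 35 to 45% if threefold the growth effect, above 45% if 1.5-fold the growth effect; inactive means the rest, general growth blockers included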;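 further: wells of about 50 µL received 100 nL stock; 0% = vehicle wells and 100% = reference inhibitor wells; whole bacteria with a GFP reporter of the hypoxia response; strong numbers were not always called active; many hits fall short of the cut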
Autofluor counter – flagged as autofluorescent in microsphere protease counterscreen | compound autofluorescence counterscreen, microsphere flow cytometry; active compounds read high | fluorescence intensity (test concentration not listed) | 360,000 compounds, 3.1% hits | AID 624483;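 active means at least 3 SD above the mean of all compounds, about 16000 in these data; inconclusive means too few beads counted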;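 further: 100 nL of 1 mM stock went into each well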
BJeLR lethal – MLPCN primary cell-based screen for lethality selective to Ras in HRASV12 cells. BJeLR (HRASV12) viability, CellTiter-Glo ATP luminescence, 48 h; reference of the scale not given here. inhibition, % (test concentration not listed). 300,000 compounds, 0.17% hits;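 active means replicate mean above 50%; inconclusive means above 50% but judged a plate artefact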;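 further: 50 nL library stock added to about 25 µL; numbers are from one replicate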
PrP 5UTR inh – inhibition of PrP 5' UTR reporter expression | 340,000 compounds, 0.35% hits | inhibition, % (no concentration beside the values) | cell-based PrP 5' UTR mRNA reporter, plate reader;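 active means every replicate at 50% or more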;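 further: 0 = median of the neutral control wells; tested in H4 reporter cells; numbers are from one replicate; inactives centre near -14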
Sa ugtP lethal – growth inhibition of ugtP-null S. aureus, primary screen, RN4220 ugtP deletion, OD600; 16 h; some inactives read as strong as hits; growth inhibition, % (test concentration not listed); 330,000 compounds, 0.54% hits;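 active means z-score under -3 and OD600 up to 0.15 on both plates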;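 further: plate controls were untreated wells for no effect and antibiotic for full effect; wells of about 80 µL received 100 nL stock; the first replicate is given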
Mtb hypoxia inh growth – also measured in Mtb hypoxia inh; calls as there; growth inhibition, %; measured here: M. tuberculosis growth (absorbance);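 0% = vehicle and 100% = reference antibiotic; read after six days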
Numbers without * were called inactive; ? = inconclusive; . = no result given. An unsorted share of the library (roughly 4% active in at least one column).

SMILES	RN4220 kill	Mtb hypoxia inh	Mtb hypoxia inh growth	Autofluor counter	BJeLR lethal	PrP 5UTR inh	Sa ugtP lethal
CC(C)(C)C(=O)NC(C(N)=O)=C(Cl)Cl	0.3	-6	4	4395	-11	-22	-2
CC(=O)N1C(C)C=C[C@]1(Cc1ccccc1)C(=O)NCCc1c[nH]c2ccccc12 (stereo not given in full)	-3.1	-4	0	.	.	.	-5
O=C(NC1CCCC1)c1cccc(S(=O)(=O)N2CCCC2)c1	0.4	23	36	8341	.	-18	7
CN(C(=O)c1ccc(NC(=O)Cc2ccc(NC(=O)C3CCCN(S(=O)(=O)c4cccc([N+](=O)[O-])c4)C3)cc2)cc1)C1CCCC1 (stereo not given)	5.5	-8	3	3128	.	-13	8
OC(COCc1ccccc1)COCc1ccccc1	5.6	14	4	3037	.	-3	9
COc1ccc(CN2CCN(CCCc3ccccc3)CC2)c(OC)c1	6.1	-8	8	.	0	.	3
CCN(CC)c1ccc(C(=O)NNC(=O)CCc2nc3ccccc3c(=O)[nH]2)cc1	-1.7	1	10	5737	-7	-10	2
CCCC(c1nnnn1C(C)(C)CC)N(CCCO)Cc1cc2cc(C)cc(C)c2[nH]c1=O (stereo not given)	0.9	.	.	4074	2	-15	2
COc1ccc(OC)c(C(C)NC(C)=O)c1 (stereo not given)	0.6	-8	-10	18227*	-1	0	-1
COC(=O)C1CCCCN1C(=O)c1cc(COc2cccc3cnccc23)on1 (stereo not given)	.	.	.	?	5	-5	.
COc1ccc(-c2nc3ccccn3c2/N=C/c2ccc(OC)c(OC)c2)cc1O	.	.	.	1960	-5	-15	.
COc1ccccc1NS(=O)(=O)c1ccc2oc(=S)[nH]c2c1	2.1	18	9	.	-12	-14	5
Cc1ccc(S(=O)(=O)N2CCN(C(=O)CC(C)n3cncn3)CC2)cc1 (stereo not given)	4.1	8	0	3523	1	-27	3
CC(C)c1ccc(NC(=O)C2CCCN2S(=O)(=O)c2ccccc2F)cc1 (stereo not given)	5.1	3	0	4114	.	-19	0
O=C(Nc1ccc([N+](=O)[O-])cc1)c1ccccc1	-0.8	2	0	4264	1	-58	-2
COc1ccc(C2N(Cc3ccccc3)CC(=O)N2/N=C(\C)c2ccccc2)cc1 (stereo not given)	.	.	.	1926	-12	-50	.
CN(C)CCCCOc1ccccc1-c1ccccc1	4.7	7	4	?	9	-5	13
Cc1ccc(C(=O)COC(=O)CN2C(=O)C3C4CCC(C4)C3C2=O)cc1C (stereo not given)	2.5	5	-8	5187	-6	-20	3
S=c1[nH]nc(-c2cccnc2)n1C1CCCCC1	3.7	12	5	1925	1	3	10
O=C(CC(C(=O)O)c1cccc(Cl)c1)c1ccccc1 (stereo not given)	3.3	-7	6	4192	21	0	-6
Cn1c(CN2CCOCC2)nnc1SCC(=O)Nc1cc(Cl)ccc1Cl	4.4	-6	-8	5380	-4	-5	2
CCCc1cc(C(=O)N/N=C/c2ccc(CC)s2)c2ccccc2n1	.	.	.	2565	29	-14	.
CCOC(=O)c1cnn(C)c1NC(=O)c1ccc([N+](=O)[O-])cc1	3.1	-3	7	3623	1	-12	6
N#Cc1nc(-c2ccc(F)cc2)oc1NCc1ccco1	-2.6	5	6	3806	13	8	5
Cc1nn(CCCC(=O)N2CCN(c3ccc(F)cc3)CC2)c(C)c1[N+](=O)[O-]	-0.6	13	4	4332	16	-11	9
Cc1ccccc1C(=O)NC(=S)Nc1ccccc1C(=O)O	-0.2	11	0	3929	11	3	-3
Cc1cccc(NC(=S)N2CCN(c3ccccn3)CC2)c1	2.6	13	6	4184	-3	-26	8
Cc1ccc(-c2nc3ccccc3c(C(=O)NCc3cccs3)c2C)cc1	1.5	.	.	4700	-7	-14	-4
O=C(CS(=O)c1ccc(C(F)(F)F)cc1[N+](=O)[O-])Oc1ccccc1 (stereo not given)	4.4	4	11	3200	1	3	16
O=C(CN1C(=O)NC2(CCc3ccccc32)C1=O)NCCc1ccccc1 (stereo not given)	3.8	25	13	3926	.	-18	-11
CN(CC(=O)Nc1ccccc1Cl)C(=O)COC(=O)c1cc([N+](=O)[O-])ccc1N1CCOCC1	1.3	12	4	4161	0	-12	-2
CCOC(=O)c1c(N=CN(C)C)sc(C=NNc2ccccc2)c1-c1ccccc1Cl	1.1	1	20	.	.	.	3
CC1=CC(=C(C#N)c2nc3ccccc3s2)C=C(C)N1CC1CCCO1 (stereo not given)	-7.6	24	13	3525	1	-21	18
COc1cccc(C2C(C(=O)OC(C)C)=C(C)Nc3ncnn32)c1 (stereo not given)	1.9	9	12	20726*	5	-12	-3
COC(=O)/C(C#N)=C/c1ccc(-c2ccc(S(N)(=O)=O)cc2)o1	2.8	19	7	4467	9	-26	1
N#C/C(=C\Nc1ccc2c(c1)OCCO2)c1nc2ccccc2[nH]1	0.8	.	.	6112	4	-37	7
COCc1c(C(=O)NCCOc2ccc(Cl)cc2)oc2ccccc12	-0.8	9	15	8241	.	-22	2
O=C(COC(=O)CN1C(=O)c2ccccc2C1=O)Nc1ccccc1	2.3	-6	2	3772	.	-10	-4
CSc1cccc(NS(=O)(=O)c2ccc3c(c2)NC(=O)C(C)C(=O)N3)c1 (stereo not given)	6.9	-9	3	5522	1	-15	4
COc1ccc2nc(C)cc(Nc3ccc(C(=O)O)cc3)c2c1	1.1	14	-4	3557	-4	-5	2
Cc1ccc(S(=O)(=O)N2[C@@H](c3ccc4c(c3)OCO4)C(C(=O)O)=C[C@H]2CC2CCCC2)cc1	18	2	-1	3019	.	26	6
CCCCC(C(=O)O)C(C)CC(=O)Nc1ccn(-c2ccccc2)n1 (stereo not given)	4.0	8	7	3013	-2	-7	-6
Cn1c(CC(=O)Nc2ccccc2)nnc1SCC(=O)Nc1ccc(N2CCOCC2)cc1	1.9	0	3	3697	-19	-27	-1
O=c1c2c3c(sc2n(CCN2CCCCC2)c(=O)n1Cc1ccco1)CCCCC3	-1.2	0	1	27290*	-11	-18	9
CN1CCc2ccccc2C1C1CCNCC1 (stereo not given)	4.0	0	-3	24213*	-9	3	2
COc1ccc(OC)c(NC(=O)C2CCN(C(=O)C3CC(=O)N(c4ccc(C)cc4)C3)CC2)c1 (stereo not given)	2.3	0	5	3525	7	2	5
Cc1nn(CCc2nc(-c3ccco3)cs2)c2[nH]c(=O)cc(C(F)(F)F)c12	0.8	5	0	6536	5	-31	-10
COc1ccc(N2CCN(C(CNC(=O)C(=O)NCCCO)c3ccco3)CC2)cc1 (stereo not given)	-3.2	-5	-3	5355	-2	6	-8
O=C1CC(N2CCOCC2)C(=O)N1c1cccc(Cl)c1 (stereo not given)	-0.8	.	.	2787	13	-11	8
CCN(CC(=O)Nc1cccc(S(=O)(=O)N2CCOCC2)c1)Cc1ccccc1	5.3	7	7	?	6	-19	-5
(listing goes on)
SMILES	RN4220 kill	Mtb hypoxia inh	Mtb hypoxia inh growth	Autofluor counter	BJeLR lethal	PrP 5UTR inh	Sa ugtP lethal
CC1CCN(S(=O)(=O)N2CCC(C(=O)NCCN3CCOCC3)CC2)CC1	1.9	7	6	9514	0	-23	6
Cc1ccc(C(C)C)c(OCCn2c(=O)oc3ccccc32)c1	0.8	6	18	3411	0	-101	-6
O=C1C=CC(=O)N1CCCCCCCCCCN1C(=O)C=CC1=O	5.6	17	10	3370	.	-19	7
CC1C=CCC2C(=O)N(c3cccc(C(=O)N4CCN(c5ccc(F)cc5)CC4)c3)C(=O)C12 (stereo not given)	11	5	4	11233	.	-25	-1
Cc1ccc(C)c(S(=O)(=O)C(C#N)c2nc3ccccc3nc2N2CC(C)OC(C)C2)c1 (stereo not given)	-5.2	0	7	5950	14	-15	-9
COc1ccc(OC)c(NC=C2C(=O)OC(C)(C)OC2=O)c1	-1.3	-9	2	2896	-3	-5	-6
C=CCOc1ccc2c(c1)c(S(=O)(=O)c1ccc(C)cc1)cn2COC	2.7	6	4	9098	-6	-19	13
CN(c1ccccc1)S(=O)(=O)c1ccc(C(=O)NCC(c2ccco2)N2CCCCC2)cc1 (stereo not given)	0.5	5	-1	4065	.	-6	6
CCN(C(=O)COC(=O)c1cccnc1Nc1ccccc1F)C1CCS(=O)(=O)C1 (stereo not given)	4.0	2	0	2467	-6	-7	5
Cc1ccc(NCCC(=O)c2cccc([N+](=O)[O-])c2)cc1	0.1	4	13	10591	-4	-12	16

Structural class, the compounds so far containing a COOH group.
SMILES	RN4220 kill	Mtb hypoxia inh	Mtb hypoxia inh growth	Autofluor counter	BJeLR lethal	PrP 5UTR inh	Sa ugtP lethal
O=C(CC(C(=O)O)c1cccc(Cl)c1)c1ccccc1 (stereo not given)	3.3	-7	6	4192	21	0	-6
Cc1ccccc1C(=O)NC(=S)Nc1ccccc1C(=O)O	-0.2	11	0	3929	11	3	-3
COc1ccc2nc(C)cc(Nc3ccc(C(=O)O)cc3)c2c1	1.1	14	-4	3557	-4	-5	2
Cc1ccc(S(=O)(=O)N2[C@@H](c3ccc4c(c3)OCO4)C(C(=O)O)=C[C@H]2CC2CCCC2)cc1	18	2	-1	3019	.	26	6
CCCCC(C(=O)O)C(C)CC(=O)Nc1ccn(-c2ccccc2)n1 (stereo not given)	4.0	8	7	3013	-2	-7	-6

(list continues)
SMILES	RN4220 kill	Mtb hypoxia inh	Mtb hypoxia inh growth	Autofluor counter	BJeLR lethal	PrP 5UTR inh	Sa ugtP lethal
CCOc1ccc(S(=O)(=O)N2CCOCC2)cc1NC(=O)Cc1c(F)cccc1Cl	8.3	-3	3	?	-10	-6	0
COc1ccc(C(=O)/C=C/c2cccs2)c(OC(=O)N2CCOCC2)c1	5.8	-3	2	2300	-2	-18	1
NC(=O)C1CCN(C(=O)CN2CCc3ccccc32)CC1	4.9	.	.	3532	-4	2	0
COc1ccc2[nH]cc(CCNC(=O)CC[C@H]3O[C@@H](n4cc(C)c(=O)[nH]c4=O)C[C@@H]3O)c2c1	-0.2	-5	5	3411	.	-16	2
NC(=O)CC(NC(=O)Cc1cccc2ccccc12)c1ccc(NC2CCCCCCC2)c([N+](=O)[O-])c1 (stereo not given)	.	.	.	2826	-10	-8	.
C[C@H]1CN([C@@H](C)CO)C(=O)Cc2cc(NC(=O)Cc3cn(C)c4ccccc34)ccc2O[C@@H]1CN(C)S(=O)(=O)c1cn(C)cn1	6.6	2	5	3703	.	-9	-2
COc1ccc(NC(=O)C2CCCC2)cc1	3.8	-1	4	4064	-6	-9	10
CCN(CC)S(=O)(=O)c1ccc(NC(=O)Cn2c(=O)oc3ccccc32)cc1	2.9	-75	-11	4310	20	-15	1
O=C(CCc1nc2ccccc2c(=O)[nH]1)NCCN1C(=O)S/C(=C\c2ccc(Cl)cc2Cl)C1=O	4.4	-1	1	.	6	-10	-1
Oc1ccc(-c2nnc(SCc3ccccc3)o2)cc1	.	.	.	3342	-1	-49	.
CCOC(=O)C1CCN(C(C(=O)Nc2ccc3c(c2)OCCO3)c2ccccc2)CC1 (stereo not given)	3.5	.	.	3069	0	-13	6
Cc1ccc(NC(=O)C2CCCN(c3ncnc4c3nc3n4CCCCC3)C2)nc1 (stereo not given)	2.6	-1	12	6296	7	14	-13
O=C1c2c(O)cccc2Cc2cccc(O)c21	15	.	.	5380	.	-48	-1
COc1cc2c(cc1OC)C(c1cccs1)N(C(=O)c1ccc(S(=O)(=O)N(C)C)cc1)CC2 (stereo not given)	4.9	4	4	7466	17	-10	6
COc1nc(-c2ccccc2)c2c(c1C#N)CC(C)(C)OC2	-11	5	0	2463	-8	-9	8
N#CCC(=O)NN=Cc1cn(Cc2cccc3ccccc23)c2ccccc12	3.9	3	1	.	.	.	-3
CSc1nc(NCC(C)C)c2c3c(sc2n1)CN(C)CC3	-6.3	-5	2	10319	-4	4	-12
Cc1sc2nc(SCC(=O)Nc3c(C)n(C)n(-c4ccccc4)c3=O)n(C)c(=O)c2c1C	2.8	20	14	4569	5	-26	8
O=C(O)CCC(=O)Nc1ccc(Br)cc1C(=O)c1ccccc1Cl	3.6	3	-4	4670	10	-10	5
C=CCN1CCc2c(cc(O)c(O)c2Cl)C(c2ccccc2)C1 (stereo not given)	6.1	8	0	6007	-16	-2	-5
Cc1ccc(N(CC(=O)NCCc2ccccc2)S(=O)(=O)c2c(C)noc2C)cc1	4.6	12	13	13260	-6	-18	0
